# NPYLR7 ag – mosquito NPYLR7 agonism; activation, % at 10 µM; actives 0.15% (n = 270,000); AID 1259423; HEK293T NPYLR7/Galpha15, GCaMP6s calcium fluorescence; in the data active = activation above about 40%;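 note: 0% = vehicle and 100% = reference agonist at the receptor; some compounds past the cut are filed as inactive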
# NPYLR7 ag max-min – second read-out of NPYLR7 ag, no call of its own (marks repeat the call); activation, %; measured here: Max-Min RFU normalised activation; some inactives read as strong as hits;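 span of the calcium signal over five minutes; 0% = vehicle and 100% = native peptide agonist; compound fluorescence can raise it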
# Starred values were filed as active, the others as inactive; & = joins results of further samples. Only part of the results is shown; count on the stated rates, not on these rows.
SMILES,NPYLR7 ag,NPYLR7 ag max-min
Cn1c(C(=O)N2CCC(C(=O)N3CCN(C4CCCCC4)CC3)CC2)cc2sccc21,3.8,4.7
CN(Cc1ccccc1)C(=O)NCc1ccc(S(=O)(=O)N2CCCCC2)cc1,1.0,1.9
COC(=O)c1ccc(CNCc2cccnc2N2CCCC(O)C2)cc1 (centres undefined),18.3,9.1
CS(=O)(=O)CC(=O)N1CCCC(OCc2cccnc2)C1 (centres undefined),12.3,12.7
CC(C(=O)Nc1cc(S(=O)(=O)N2CCCCC2)ccc1Cl)N1CCN(Cc2ccco2)CC1 (centres undefined),1.5,0.8
COCCNC(=O)C(NC(=O)CC(C)C)C1CCN(C(=O)c2cccc(C)c2)CC1 (centres undefined),-4.0,2.4
CN(Cn1cc(Cl)cn1)C(C1CC1)C1CC1,-2.3,-8.1
Cc1cccc(C(=O)Oc2ccc(/C=C3/SC(=S)N(CC(=O)O)C3=O)cc2)c1,-3.8,-9.8
Cc1ccccc1Cn1c(C)c(C(=O)NCc2ccc(C(F)(F)F)cc2)sc1=O,-7.8,-5.2
COc1cccc(-c2nnc(SCc3ccc(C(=O)N4CCOCC4)cc3)n2-c2ccc(F)cc2)c1,14.9,17.3
COC(=O)[C@@H]1C[C@@H](N(C)C)CN1S(=O)(=O)CCc1ccncc1,-0.4&25.9,0.0&9.3
CCn1c(C)c(C(=O)CN(C(=O)C2C[C@H]2c2ccccc2)C2CCCCC2)c(C)c1C(=O)OC (some centres undefined),17.3,36.2
CC(SCc1nc(CS(C)(=O)=O)no1)c1ccc(F)c(F)c1 (centres undefined),-1.1,21.6
Cc1nn(CC(=O)N2CCOCC2)c(C)c1[N+](=O)[O-],1.2,-0.5
COC(=O)CC1(C(=O)OC)SC(=Nc2ccccc2)NN1c1nnc(C)c(=O)[nH]1 (centres undefined),-1.0,-4.9
CN(Cc1noc2c1CCCC2)C(=O)c1cn(CC2CCCNC2)nn1 (centres undefined),24.7,7.1
CCCCCn1c(=O)c2c(nc3oc(-c4ccc(F)cc4)cn32)n(C)c1=O,-1.9,-4.3
O=C(C1CCC1)N(Cc1ccc(F)cc1)Cc1cc(Cl)ccc1OS(=O)(=O)c1ccc(F)cc1,-4.9,-18.0
COC(=O)[C@H](C)N(C)C(=O)CCC(=O)NC1CCCC1,8.9,5.2
Cc1cc(C(C)(C)C)ccc1OCC(O)CNC1CCC(O)CC1 (centres undefined),-2.4,-5.1
CCCS(=O)(=O)N1CCN(CCN2C(=O)C(C)SC2c2ccc(Cl)c(Cl)c2)CC1 (centres undefined),-0.1,5.2
CCn1cc(NC(=O)Nc2cccc(C(C)=O)c2)c2ccccc21,16.1,5.2
CC(C)c1nc(-c2ccccc2NC(=O)CSC(F)(F)F)n[nH]1,13.8,11.0
CCc1cc(NCc2ccc3c(c2)OCO3)nc(N2CCOCC2)n1,-2.1,-5.9
CC(C)(C)COC(=O)N1CC(=O)N(Cc2cccc(F)c2)CC(O)C1 (centres undefined),6.6,12.6
CC(C)CNC(=O)CN(Cc1ccccc1)CC1CCC1,6.7,3.1
Cc1ccccc1Cn1cc(C(=O)NCCSc2nccn2C)nn1,13.5,12.8
CC1OC(C)(C)N(C(=O)OC(C)(C)C)C1CN (centres undefined),-0.8,-4.1
Cc1noc(C(C)NC(=O)CCSc2ccc3c(c2)OCCO3)n1 (centres undefined),6.6,4.0
COc1cccc(-c2cccc(NC(=O)C3CCN(Cc4cnn(C)c4)CC3)c2)c1,0.8,0.7

# 4 compounds out of the list, arranged by heavy-atom count, ascending.
SMILES,NPYLR7 ag,NPYLR7 ag max-min
CC(C)CNC(=O)CN(Cc1ccccc1)CC1CCC1,6.7,3.1
Cc1cc(C(C)(C)C)ccc1OCC(O)CNC1CCC(O)CC1 (centres undefined),-2.4,-5.1
CN(Cc1noc2c1CCCC2)C(=O)c1cn(CC2CCCNC2)nn1 (centres undefined),24.7,7.1
CCCS(=O)(=O)N1CCN(CCN2C(=O)C(C)SC2c2ccc(Cl)c(Cl)c2)CC1 (centres undefined),-0.1,5.2

# Continued:
SMILES,NPYLR7 ag,NPYLR7 ag max-min
Cc1cccc2[nH]c(CN(C)C(=O)c3cc(COc4ccccc4)[nH]n3)nc12,1.5,-1.5
Cc1ccc(-c2nnc(SCc3ccc(C(=O)N4CCN(C)CC4)cc3)n2-c2ccccc2F)cc1,2.7,7.9
COc1ccccc1C1SCC(=O)N1CCN1CCN(C(=O)c2ccco2)CC1 (centres undefined),6.5,1.6
O=C(CSc1nnc(N2CCCC2)n1C1CC1)Nc1cc(-c2ccccc2)nn1-c1ccccc1,-5.7,-7.4
CCOC(=O)N1CCN(C(=O)CSc2ccc3nnc(-c4ccccc4)n3n2)CC1,-0.4,41.6
Cc1cccc(/C(C#N)=C\c2ccc3c(c2)n(C)c(=O)n3C)c1,-1.8,4.0
Cc1nc2ccccc2n1CCCN1C(=O)C2(CC(=O)N(CC3CC3)C2=O)c2cc(F)ccc21 (centres undefined),3.3,-7.0
CCn1ncnc1CN1CCCC(C(=O)N2CCCC2)C1 (centres undefined),13.3,7.4
Cc1cccc(C(C)C)c1NC(=O)N1CC(=O)N2CCc3c(F)cccc3C2C1 (centres undefined),-3.5,2.6
O=C(NCc1ccc2c(c1)OCO2)c1ccc(CSc2nc(-c3ccccc3)cc(N3CCN(c4ccccc4Cl)CC3)n2)cc1,8.1,14.9
C=CCOC1C[C@](OCc2cccc(OC)c2)(C(=O)NC(C)C)C[C@@H](O)[C@H]1O (some centres undefined),-2.5,10.1
O=C(O)[C@H]1C[C@@H](C(=O)NCc2ccccn2)CN(C2CCOCC2)C1,3.4,1.1
O=S(=O)(Nc1nccs1)c1ccccc1,19.3,29.2
CCOC(=O)Cn1c(C2CC(=O)N(c3cccc(OC)c3)C2)nc2ccccc21 (centres undefined),2.7,-3.0
N#Cc1nncn1Cc1cc(Cl)c2c(c1)OCO2,-2.6,-5.4
O=C(CCc1ccncc1)N1CCc2c([nH]c3ccccc23)C1C1CCCCC1 (centres undefined),21.4,7.2
Cc1ccc(NC(=O)C2(C)CCN2CC2CCCCC2)cc1 (centres undefined),4.1,2.4
Cc1ccc(C(=O)N2CCN(c3ccc(-n4cccn4)nn3)CC2)c(C)c1,-6.9,-11.8
CSc1nnc2c(n1)OC(c1cc(O)c(O)c(Br)c1)Nc1ccccc1-2 (centres undefined),-1.8,-0.8
Cc1nc(=S)[nH]c(C)c1CCC(=O)NC12CC3CC(CC(C3)C1)C2,-1.5,-4.1
CCOC(=O)C1(Cc2ccc(F)cc2F)CCCN(C(=O)c2ccc3c(c2)no[n+]3[O-])C1 (centres undefined),8.5,9.7
Cc1cc(C)n(-c2ccc(C(=O)NCCNc3ccc([N+](=O)[O-])cn3)cc2)n1,-17.6,-20.2
CN(C)c1nc(N)nc(C2CCOCC2)n1,5.7,12.7
O=C1C2ON(c3ccccc3)C(c3cccc([N+](=O)[O-])c3)C2C(=O)N1c1ccc(Cl)cc1 (centres undefined),-4.9,-12.3
Cc1ccc(C(=O)N(CC(=O)N(CCc2c[nH]c3ccccc23)Cc2ccc(F)cc2)C(C)C)cc1[N+](=O)[O-],-4.3,-3.6
Cc1cc(Oc2cc(N3CCN(C(=O)c4ccc(F)cc4)C(C)C3)ncn2)ccc1Cl (centres undefined),-9.2,4.0
Cc1ccc(F)c(C(=O)N2CCc3nnc(CCc4ccccc4)n3CC2)c1F,5.8,2.0
COc1ccc(CN2C3CCC2CC(NC(=O)c2ccc(F)cc2C(F)(F)F)C3)c(OC)c1 (centres undefined),4.1,11.7
O=C(NCCC(=O)N1CCN(S(=O)(=O)c2ccc(F)cc2F)CC1)c1ccsc1,4.0,3.6
O=C(c1ccccc1Cl)N1CCC(Nc2cccnc2)CC1,9.0,3.6
COc1cc(CN2CCCn3cccc3C2c2ccsc2)cc(OC)c1 (centres undefined),15.7,10.2
CCOc1ccc(C2c3[nH]c4ccccc4c3CCN2C(=O)CCCN2CCCC2=O)cc1 (centres undefined),13.4,2.2
C=CCn1nnnc1NCc1cc(Cl)ccc1OCC,-0.5,-0.3
C=CCn1c(=O)c2c3c(sc2n2c(Nc4ccc(OC)cc4)nnc12)CCC3,-1.6,22.4
CSCCCN1CCN(Cc2cccc(F)c2)C(=O)C1,0.8,-2.1
CCC(=O)N[C@@H]1c2ccccc2C2(CCN(C(=O)c3ccc(C#CC(C)(C)O)cc3)CC2)[C@H]1OC,18.6,7.5
O=C(Nc1ccccc1CCO)c1ccc(CN2CCCCCC2)cc1,7.4,7.0
COCCOC(=O)C1=C(C)N(C)C(=S)NC1c1cccc(NC(=O)Nc2ccc(SC)cc2)c1 (centres undefined),11.4,15.4
COc1ccc(-c2nc3c(Nc4ccccc4)nccc3[nH]2)cc1OC,-2.5,-8.6
N#Cc1cccnc1N1CCCN(C(=O)NC2CC2c2ccccc2)CC1 (centres undefined),1.3,-0.3
COc1ccc2[nH]c3c(c2c1)CCN(C(=O)c1cc2ccccc2s1)C3c1ccc(COC(C)=O)o1 (centres undefined),13.4,4.9
Cn1c(=O)c2c(N3CCCc4ccccc43)ccnc2n(C)c1=O,5.3,2.7
Cc1ccc(C(=O)N/C(=C/c2cccc([N+](=O)[O-])c2)C(=O)NC(C)C)cc1,16.1,6.5
O=C(COc1ccc(F)cc1)NCCSCc1ccco1,-3.1,-3.8
COCCN(CC(=O)Nc1nc(CC(=O)N2CCN(c3ccccc3F)CC2)cs1)C(=O)c1ccco1,1.6,12.8

# 5 of the compounds above, bar-delimited.
Compound | NPYLR7 ag | NPYLR7 ag max-min
COc1ccc2[nH]c3c(c2c1)CCN(C(=O)c1cc2ccccc2s1)C3c1ccc(COC(C)=O)o1 (centres undefined) | 13.4 | 4.9
Cn1c(=O)c2c(N3CCCc4ccccc43)ccnc2n(C)c1=O | 5.3 | 2.7
Cc1ccc(C(=O)N/C(=C/c2cccc([N+](=O)[O-])c2)C(=O)NC(C)C)cc1 | 16.1 | 6.5
O=C(COc1ccc(F)cc1)NCCSCc1ccco1 | -3.1 | -3.8
COCCN(CC(=O)Nc1nc(CC(=O)N2CCN(c3ccccc3F)CC2)cs1)C(=O)c1ccco1 | 1.6 | 12.8

# Carrying on:
SMILES,NPYLR7 ag,NPYLR7 ag max-min
Cc1c(Cl)cccc1NC(=O)CNC(=O)C1CC(=O)N(C(C)c2ccccc2)C1 (centres undefined),14.9,14.7
CCOC(=O)C=NC1C(=O)NC(=S)NC1=NC (centres undefined),15.5,10.0
CCOC(=O)c1sc(-c2ccc(OC)c(OC)c2)cc1NC(=O)c1ccc(OC)c([N+](=O)[O-])c1,12.4,11.2
CC(C)N1C(=O)C(=O)N(CC(=O)c2ccc(CNC(=O)C(C)(C)C)s2)C1=O,-0.3,36.4
COc1cc(N=c2scc(-c3ccccc3)n2-c2ccc(OC)c(OC)c2)cc(OC)c1,19.3,5.0
CC(=O)OCC(=O)[C@@]1(O)CC[C@H]2[C@@H]3CCC4=CC(=O)C=C[C@]4(C)[C@H]3[C@@H](O)C[C@@]21C,0.7,-5.5
Cc1nn(CC(=O)NC2CCCC2)c(=O)c2cc3sccc3n12,4.5,5.7
CC1=C(C(=O)OCC(C)C)C(c2ccccc2F)NC(=O)N1 (centres undefined),1.7,-3.2
Cc1cccc(CO[C@]2(C(=O)NN3CCOCC3)CC(OCc3ccc(C#N)cc3)[C@H](O)[C@H](O)C2)c1 (some centres undefined),-0.2,8.3
CCC(=O)NCc1cn(C)nc1C,1.2,-0.7
Cc1ccc2c(CC(=O)N3CCn4cccc4C3C)coc2c1 (centres undefined),10.1,7.2
Cc1cccc(CN(Cc2cccc(C)n2)C(=O)c2cn[nH]c2C)n1,0.5,0.4
CC(C)c1nccn1C(C)C(=O)N1CC(c2ccncc2)C1 (centres undefined),4.2,3.9
O=C(NNC(=O)c1c(F)cccc1Cl)c1ccc(Cn2nnc(-c3ccccc3)n2)cc1,-5.5,-9.5
CCn1c(=O)c2c(nc3n2CC(C)=NN3Cc2ccc(C)cc2)n(C)c1=O,1.1,-5.4
CC(NC(=O)c1nn2c(C(F)(F)F)cc(-c3ccc(Br)cc3)nc2c1Cl)c1ccccc1 (centres undefined),-7.6,-11.1
COCc1[nH]n2c(=O)cc(C)nc2c1-c1ccccc1,-3.8,-3.4
COc1cc(OC)cc(C(=O)N2CCN(c3cc(S(=O)(=O)N4CCCC(C)C4)ccc3OC)CC2)c1 (centres undefined),6.3,4.5
O=C1CCC(C(=O)N2CCN(c3ccc(Cl)cn3)CC2)CN1CCc1ccccn1 (centres undefined),-0.5,-4.4
Cn1c(=O)c2c(nc(SCCCO)n2Cc2ccccc2)n(C)c1=O,-4.1,-5.9
O=C(CSc1nnc(-c2ccccc2)n1-c1ccccc1)N/N=C\C=C\c1ccccc1,-2.0,-7.5
CCn1ncc(S(=O)(=O)N2CCC3(CC2)CN(C)CCN3C)c1C,7.2,5.2
Cc1nn(-c2ccc(C(C)(C)C)cc2)c(C)c1CCC(=O)NCCCN1CCCC1=O,-8.9,-17.7
COc1ccc(-c2nc3n(n2)C(c2cccs2)C(C(=O)Nc2ccccc2OC)=C(C)N3)cc1 (centres undefined),2.2,1.2
Cc1cnc2n(c1=O)C(CC(=O)NCCC(c1ccccc1)c1ccccc1)CS2 (centres undefined),0.9,-2.6
CC(C)Oc1cccc(NC(=O)C2(C)CCN2C(C)C)c1 (centres undefined),1.4,-1.3
COc1ccccc1N1CCN(Cc2ccnc(C(C)C)n2)C(C)C1 (centres undefined),4.6,2.9
CCN(CCn1cccn1)C(=O)c1cc(C)[nH]n1,-7.7,-9.9
Fc1ccc(Oc2cc(-c3ccccc3)nc(SCc3ccccc3)n2)c(F)c1,4.6,6.4
CN1CCN(c2cc(OCCNC(=O)Nc3cccc(Cl)c3)ncn2)CC1,-0.6,-3.5
O=C(CSc1nc(=O)n(Cc2cccnc2)c2c1CCCC2)Nc1cccc([N+](=O)[O-])c1,0.9,-2.4
CCOC(=O)C1CCCN(C(=O)c2c(CC(C)C)nn(-c3ccc(F)cc3)c2CC)C1 (centres undefined),3.1,2.4
CC(=O)Nc1ccc(S(=O)(=O)Oc2cccc(CN(Cc3ccco3)C(=O)c3ccccc3Cl)c2)cc1,-0.2,8.3
Cc1nnc(SCCCNC(=O)c2ccc3cc[nH]c3c2)s1,5.0,1.0
Cc1ccc(-n2c(C)nnc2SCC(=O)Nc2cc(C)no2)cc1,5.2,0.6

# Bioassay records (PubChem BioAssay)
